# High-throughput results deposited in PubChem BioAssay by National Center for Advancing Translational Sciences (NCATS).
# Sfp PPTase inh – Sfp phosphopantetheinyl transferase inhibition | Q9F4F7 | Biochemical Sfp PPTase activity, qHTS | Potency, µM, inactives show max response, negative = inhibition, actives largely listed as inhibitors | 3.5% of 310,000 active | AID 1490; active = well fitted inhibition curve with a large enough effect; inconclusive = small, poorly fitted or top-dose-only effect, or another doubt; inactive = no such curve, though single readings can be large or run the other way;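 also: the enzyme is Sfp with the accession as filed and its product quenches rhodamine fluorescence; potency is read from the fitted curve at half-maximal effect; 0% = enzyme reaction without inhibitor and -100% = no enzyme wells; top concentration of the series not given in the record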
#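 Compounds were incubated with enzyme (final 15 nM) for 15 min at room temperature before substrate addition started the reaction. Fluorescence at 525 nm excitation, 598 nm emission was recorded immediately and after 30 minutes.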
# Menin MLL FP FL – displaces fluorescein MLL peptide from human menin | Fluorescence polarization, fluorescein-MLL peptide displacement from menin | FP activity change, % at 61.4 µM | 290,000 tested, under 10 active; inconclusive = falling polarisation curve, or a change in total fluorescence; inactive = total fluorescence flat and polarisation flat or rising; no compound was filed as active; the % refers to the polarisation; negative = inhibition;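 also: % of control where 0% means no effect; inhibitors lower the polarisation; unlabelled MLL peptide was the positive control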
# TRPML1 blocker – human mucolipin-1 channel inhibition; activity change, negative = inhibition, % (no concentration beside the values); TRPML1-inducible cells, Ca2+ dye fluorescence, FDSS; stronger effect = lower value; inhibition of EC80 agonist-evoked calcium signal; 0.02% of 390,000 active; in the data active means activity change below about -50%; inconclusive means about -30% to -50%; inactive means above about -30%;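 also: stimulus is agonist 54-4 at its EC80 concentration; % is scaled to controls: 0 for no effect and ±100 for the full control effect; compound concentration not given in the record; the text of the record puts the active cut at -80%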
#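 Tet-induced TRPML1-DL cells loaded with Ca8 no-wash calcium dye were read kinetically on FDSS. Compound addition was followed by EC80 agonist 54-4 (4 uM final); inhibition was read over 110 s.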
# ClpP mod – qHTS Assay for Activators of ClpP | ATP-dependent Clp protease proteolytic subunit (Bacillus subtilis (strain 168)), P80244 | purified B. subtilis ClpP, FRET peptide cleavage, 20 min | Potency, µM (doses to about 57.5 µM), for the others: at the highest dose activity change, negative = active | 1.9% of 340,000 active; active = well fitted falling curve with a large enough effect; inconclusive = small, poorly fitted or top-dose-only effect; inactive = no such curve, though single readings can be large or run the other way; also: potency is read from the fitted curve at half-maximal effect; the source files actives as falling curves though it sought activators and does not explain the sign; nearly all actives have a fitted effect of over 65% in size; many hits overshoot -100%
# Target sequence (P80244 whole entry, looked up): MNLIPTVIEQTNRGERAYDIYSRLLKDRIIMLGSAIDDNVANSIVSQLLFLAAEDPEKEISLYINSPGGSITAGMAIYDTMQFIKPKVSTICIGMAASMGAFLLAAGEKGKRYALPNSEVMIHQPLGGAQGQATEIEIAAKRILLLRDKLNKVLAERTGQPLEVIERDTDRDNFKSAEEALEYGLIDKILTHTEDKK
#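 Buffer: 100 mM Tris/HCl pH8, 100 mM KCl, 0.05% low protease BSA, 2.5% glycerol, 0.01% Tween-20. ClpP 10 microg/mL final; 20 min RT; delta FRET normalized to ADEP and DMSO controls.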
# PINK1 expr mod – modulators of PINK1 expression. Potency, µM (titrated, usually from 76.6 µM), for inactives: at the highest dose activation (PINK1 increase), most hits filed as activators. PINK1 immunofluorescence, high-content cytometry, 24 h. 0.2% of 410,000 active. AID 624263; active = well fitted activation curve with a large enough effect; inconclusive = small, poorly fitted or top-dose-only effect; inactive = flat fitted curve, though single readings scatter; cell line not stated here;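 also: potency is read from the fitted curve at half-maximal effect; % of control where 0% means no effect; nearly all actives have a fitted effect of over 65% in size; a mitochondrial uncoupler was the plate control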
#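 Compound titrations (5 concentrations, 24 h) on a stable cell line; DMSO and CCCP controls. Endpoint: fixed-cell PINK1 immunofluorescence with mitochondrial, cell and nuclear markers, scanned by microplate cytometer.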
# TRPV1 potentiator – potentiators of human vanilloid receptor 1 (TRPV1); 0.02% of 320,000 active; AID 540277; TRPV1-expressing cells, Fluo-8 calcium influx, capsaicin EC20 potentiation; host cell line not named in the record; control for the full effect not named in the record; potentiation, % at 8.33 µM; active means potentiation above 80%; inconclusive means 30% to 80%; inactive means below 30%; also: 0% is about no effect
# Target sequence (Q8NER1 whole entry, looked up): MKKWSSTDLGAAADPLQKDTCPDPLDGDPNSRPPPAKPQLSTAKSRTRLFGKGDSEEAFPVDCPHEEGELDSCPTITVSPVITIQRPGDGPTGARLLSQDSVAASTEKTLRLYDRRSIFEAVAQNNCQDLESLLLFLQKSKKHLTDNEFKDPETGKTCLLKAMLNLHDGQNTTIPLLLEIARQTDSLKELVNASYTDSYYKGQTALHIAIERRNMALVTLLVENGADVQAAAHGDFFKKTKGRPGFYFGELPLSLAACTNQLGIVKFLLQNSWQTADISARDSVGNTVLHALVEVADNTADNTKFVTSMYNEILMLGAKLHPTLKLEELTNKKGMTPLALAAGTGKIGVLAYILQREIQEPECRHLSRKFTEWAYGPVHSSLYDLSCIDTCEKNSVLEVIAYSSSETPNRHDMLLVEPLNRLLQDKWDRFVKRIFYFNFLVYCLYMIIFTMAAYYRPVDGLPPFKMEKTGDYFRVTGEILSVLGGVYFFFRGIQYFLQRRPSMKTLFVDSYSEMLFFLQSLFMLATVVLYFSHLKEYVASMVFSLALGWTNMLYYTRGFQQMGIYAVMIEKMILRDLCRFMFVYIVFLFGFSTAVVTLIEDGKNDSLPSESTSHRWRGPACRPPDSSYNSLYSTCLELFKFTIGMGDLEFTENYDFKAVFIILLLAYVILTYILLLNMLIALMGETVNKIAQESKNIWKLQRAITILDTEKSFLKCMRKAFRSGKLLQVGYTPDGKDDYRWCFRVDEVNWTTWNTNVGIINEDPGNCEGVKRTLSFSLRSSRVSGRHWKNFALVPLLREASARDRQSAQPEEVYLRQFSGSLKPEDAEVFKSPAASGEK
#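 TRPV1-expressing cells were cultured overnight at 35.5C and loaded with Fluo-8 calcium dye for 40 to 90 min at room temperature. After a 10 s baseline, compound was added and calcium influx was read kinetically for 3 min (ex 480/em 520 nm).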
# TRPML1 ag – activates the human TRPML1 channel; Q9GZU1; TRPML1-expressing cells, Ca2+ dye fluorescence, FDSS; host cell line not named in the record; reference of the full effect not given here; activation, % (test concentration not listed); 0.12% of 410,000 active; AID 624414; in the data active = activation above about 50%; inconclusive = about 30% to 50%; inactive = below about 30%; also: 0% is about no effect; the text of the record puts the active cut at 80%
#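 Agonist activity was taken from a 110 s kinetic Ca2+ dye read on the FDSS after pinning compounds onto TRPML1-DL cells. The cells were seeded at 1,500/well with Tet inducer, incubated about 16 h, then dye-loaded at room temperature.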
# Numbers without * were called inactive; ? = inconclusive; . = no result given; [ ] = another dose, or the depositor's remark. Rows are unselected. Share with any hit: about 4.4%.
# The line under a structure holds: Sfp PPTase inh, Menin MLL FP FL, TRPML1 blocker, ClpP mod, PINK1 expr mod, TRPV1 potentiator, TRPML1 ag
Cc1cc2c(cc1S(=O)(=O)NCC(C)c1ccccc1)n(C)c(=O)c(=O)n2C (stereo not drawn)
 : 9%, 2.1, 9, -21%, 0.8%, ?, 1.1
O=C(Cn1ccc(NC(=O)OCc2ccccc2)nc1=O)NCc1ccc2[nH]ccc2c1
 : ., ., 5, 4.5%, 4.3%, 2, 0.0
COc1ccc(S(=O)(=O)N2CCOCC2)cc1NC(=O)Cn1nnc2ccccc2c1=O
 : 3%, 4.0, -2, -0.2%, 0.4%, 1, 0.4
CCOc1ccccc1NC(=O)Cn1c(=O)n(Cc2ccccc2)c(=O)c2cccnc21
 : ., ., -19, -11%, -1.2%, ., 0.7
CS(=O)(=O)c1ccc(C(=O)OCc2nnc(-c3ccc(Cl)cc3)o2)cc1[N+](=O)[O-]
 : -3%, 0.1, 0, -1.5%, -0.9%, 12, -0.4
Cc1ccc2c(c1)c(=O)c(C(=O)c1ccccc1)cn2Cc1ccccc1F
 : ., ., 57, -2.3%, -0.9%, ., 3.5
O=C(CSc1nnc2ccccn12)NC(=O)NC1CCCC1
 : 7%, 0.1, 3, -1.7%, ., -7, 0.1
CCn1cc(C(=O)NC2CCCCCC2)c2cc(OC)c(OC)cc2c1=O
 : 9%, -0.9, -23, ?, -1.0%, -18, 3.0
COc1ccccc1CNC(=O)c1cc(-c2ccccc2)n[nH]1
 : ., ., 13, 1.8%, -0.6%, ., 1.6
CCOC(=O)CCCCCC(=O)Nc1ccc2c(c1)C(=O)N([C@H](C)CO)C[C@H](C)[C@H](CN(C)C(=O)C1CCCCC1)OCCCC[C@@H](C)O2
 : ., ., 15, -3.3%, 2.0%, ., 0.8
Clc1ccc2nc(C3CCCCC3)c(Cc3ccsc3)n2c1
 : ., ., ., -17%, 13%, ., -0.4
CSc1nsc(SCC(=O)Nc2ccc(C(=O)O)cc2)n1
 : 9%, -4.4, 75, ., -0.1%, -3, 0.9
C/C(Nc1ccc(Cl)c(Cl)c1)=C1/CCOC1=O
 : ., ., -10, 0.9%, 11%, ., -0.7
CC[C@@]1(C(=O)OC)N[C@H](CN(C)C(=O)Nc2ccc(C)cc2)[C@@H]2C(=O)N(C)C(=O)[C@@H]21
 : ., ., -4, 1.2%, -0.4%, ., -0.6
S=C(NCc1ccco1)NCc1ccco1
 : ., ., 18, -0.8%, -3.7%, ., 0.8
CCC(C)NC(=O)C1CCN(S(=O)(=O)N2CCOCC2)CC1 (stereo not drawn)
 : 15%, -0.3, 1, 1.5%, 1.7%, 4, 0.0
Cc1ccc(NC(=O)NC(=O)CN2CCC(C(N)=O)CC2)c(C)c1
 : ., ., 12, -1.7%, -1.1%, 3, -0.2
C/C(=N\O)c1ccc2c(c1)CC(C)O2 (stereo not drawn)
 : 6%, 2.0, 23, ., -0.9%, -3, -0.8
COc1ccccc1-c1ccc(SCc2ccc(F)cc2)nn1
 : -3%, -0.8, -15, -1.2%, 1.7%, 9, -0.5
CC12C(=O)N(c3ccc(OC(=O)c4ccco4)cc3)C(=O)C1C1c3ccccc3C2c2ccccc21 (stereo not drawn)
 : 21%, 7.0, 42, 1.1%, -1.7%, 4, 0.2
CCCC1S/C(=N/N=C/c2ccc(C)cc2)N(Cc2ccc(OC)cc2)C1=O (stereo not drawn)
 : 3%, -0.9, -6, -1.2%, -0.9%, -8, -0.3
CCCS(=O)(=O)NC(=O)C1(C)CCN(C(=O)c2cc(C)on2)C1 (stereo not drawn)
 : ., ., 3, 1.8%, 2.4%, ., 0.1
COc1ccc(Cc2nnc(NC(=O)c3ccco3)s2)cc1
 : 6%, 3.7, 17, -0.6%, -1.5%, ?, 0.7
CCN(C(=O)CSc1nnc(-c2ccc(OC)cc2)n1N)c1c(N)n(Cc2ccccc2)c(=O)[nH]c1=O
 : ., ., -11, 0.2%, 0.8%, ., -0.5
COc1ccc(S(=O)(=O)NCc2cccnc2)cc1NC(=O)c1ccccc1
 : 15%, 6.4, 4, ., 6.0%, 17, -0.3
O=C(CN1C(=O)C2CC=CCC2C1=O)N1CCN(c2ccc([N+](=O)[O-])cc2)CC1 (stereo not drawn)
 : 4%, 1.2, 2, ., -1.2%, ., 0.5
CC1=C(C(=O)OC(C)(C)C)C(c2ccc3ccccc3c2)NC(=O)N1C (stereo not drawn)
 : 0%, -0.9, -13, ., 0.6%, -4, 0.3
COc1ccccc1C1CC(=O)N(c2cccc(C(F)(F)F)c2)C2=C1C(=O)OC2 (stereo not drawn)
 : ., ., -6, -0.9%, 8.1%, ., 9.1
COc1ccc(CC(=O)NNS(=O)(=O)c2ccc(F)cc2)cc1OC
 : 6%, -1.2, -7, 1.1%, 2.1%, 10, 4.2
C/C(=N\NC(=O)CNc1ccc(F)cc1)c1cc2ccccc2o1
 : 1%, -7.1, 5, ., 0.3%, 5, 3.1
O=C(Nc1ccccc1)N(Cc1ccc(Cl)cc1)CC(O)C(F)(F)F (stereo not drawn)
 : 1%, 3.8, 48, -1.6%, 4.3%, ?, 0.7
CCOc1ccc(NC(=O)CSc2nnc(-c3ccccn3)n2C)cc1
 : -3%, 2.3, 16, 1.3%, 0.1%, 4, 0.6
CCS(=O)(=O)N1CCc2cc(C(=O)Nc3ccc(C(=O)OC)cc3)ccc21
 : ., ., -1, 7.1%, -0.3%, ., -0.7
COC(=O)c1ccc(N/N=C/c2cc([N+](=O)[O-])cc(OC)c2O)cc1
 : -15%, 0.6, -9, ., 0.8%, 13, -0.7
CC1(C)NC(=O)N(CC(O)COc2cc3ccccc3cc2C(=O)N2CCCCC2)C1=O (stereo not drawn)
 : 5%, 1.5, -8, -1.8%, -4.9%, -12, 0.0
CCOc1ccc(NS(=O)(=O)c2ccc(C(=O)NCCN3CCOCC3)cc2)cc1
 : ., ., 3, -0.3%, 0.9%, 4, 0.8
Cc1ccc(OCC(=O)N2CCCCCCC2)cc1C
 : 9%, -0.6, 2, ., 2.0%, -8, -0.8
O=C(CN(C(=O)CCC(=O)Nc1ccccn1)c1cccc(F)c1)NCc1ccc2c(c1)OCO2
 : 16%, 1.0, -17, -0.4%, 0.2%, 10, -1.5
S=c1[nH]nc(Nc2ccc(Cl)cc2)s1
 : ?, -0.8, 27, 2.9%, -1.6%, 4, 0.9
Cc1sc2ncnc(OCC(=O)N3CCN(C(=O)c4ccco4)CC3)c2c1C
 : 8%, 1.1, -19, -1.5%, 2.0%, -19, 1.5
O=c1c(C=Nc2ccc(Cl)cc2)c[nH]n1-c1cccc(Cl)n1
 : -4%, 0.8, 28, -0.9%, 1.3%, -4, 0.7
CC(c1nnc(SCC(=O)c2c(N)n(C3CC3)c(=O)[nH]c2=O)n1-c1ccc(F)cc1)N(C)C (stereo not drawn)
 : ., ., -14, -3.1%, -0.6%, -23, 0.0
O=C(OCC(=O)N1CCCC1)c1c2c(nc3ccccc13)CCCCC2
 : 15%, 1.8, ?, -4.1%, 1.1%, -21, 2.1
COc1ccccc1N1CCN(C(=O)CCS(=O)(=O)c2ccc3c(c2)NC(=O)C(C)S3)CC1 (stereo not drawn)
 : 1%, -1.3, 9, -0.4%, 0.0%, 6, 2.9
O=C(Cn1cc(C(F)(F)F)ccc1=O)N/N=C/c1cccc(Cl)c1
 : 2%, 5.7, 36, ., 10%, -14, 0.0
O=C(O)c1cccc(-n2cccc2/C=C2/SC(=O)N(CC(=O)N3CCCC3)C2=O)c1
 : -10%, 11, 14, 2.2%, 1.6%, 1, -1.5
Cc1cc(C)cc(NC(=O)CCS(=O)(=O)c2cc3c4c(c2)CCN4C(=O)CC3)c1
 : ., ., 9, -0.9%, 1.8%, ., -0.7
CCn1c(=O)c2c(nc3n2CCCN3Cc2ccccc2)n(C)c1=O
 : 4%, -1.9, 37, -0.5%, 0.3%, 4, 0.7
COCc1cc(=O)n2[nH]c(-c3ccc(C)cc3)cc2n1
 : 2%, -0.3, -12, 20µM*, 2.0%[38.3 µM], 13, 0.2
COc1ccc(/C=C/c2nc(N)nc(-c3ccccc3O)n2)cc1
 : 20%, 3.0, 11, -1.0%, 7.2%, 5, -0.5
CN(c1ccccc1C(=O)Nc1ccccc1-c1ccccc1)S(C)(=O)=O
 : 7%, -5.1, 25, 1.1%, 2.3%, -4, 0.2
Cc1ccc(C)c(OCC(=O)Nc2ccc3c(c2)OCO3)c1
 : -10%, 0.6, 52, -2.4%, 0.0%, -19, 1.0
COc1ccc(N2CCN(C(c3cccs3)C(C)NS(=O)(=O)c3ccccc3)CC2)cc1 (stereo not drawn)
 : 3%, -7.3, -14, -21%, 1.1%, 4, 0.2
COc1cccc(CN(C)C(=O)c2ccc(OCC(=O)Nc3cccc(C(F)(F)F)c3)c(OC)c2)c1
 : ., ., 4, 2.6%, 0.5%, 9, -0.1
COc1cccc(Cn2cnc3c(NS(=O)(=O)c4ccc(Cl)cc4Cl)c(C)c(C)cc32)c1
 : -5%, 5.5, 36, 0.8%, 1.0%, 7, 1.7
CCN(Cc1ccccc1)C(=O)c1cccc(OC2CCN(C(=O)C3CC3)CC2)c1
 : 1%, ., -1, -1.9%, -0.2%, 9, -0.1
CCOC(=O)c1ccccc1NC(=O)CSc1nnc(COc2ccccc2C)n1C
 : -8%, -9.3, 0, -4.2%, 6.2%[38.3 µM], 4, 0.8
O=C1Nc2cc(Cl)c(Cl)cc2N(O)N1c1cc(Cl)cc(Cl)c1
 : 7%, 3.4, 16, 0.2%, 5.2%[38.3 µM], 16, -0.6
N#Cc1nc(COc2ccc(F)cc2)oc1N1CCCCC1
 : -1%, 3.6, -2, -0.6%, 0.8%, -12, -0.6
O=C(COc1ccc(-n2cnnn2)cc1)NC(=O)NCc1ccccc1
 : 20%, 4.2, 6, -7.6%, 0.3%, 14, -0.5

# Arranged by the number under Menin MLL FP FL (low to high): four of the compounds above.
SMILES	Sfp PPTase inh	Menin MLL FP FL	TRPML1 blocker	PINK1 expr mod
CCCC1S/C(=N/N=C/c2ccc(C)cc2)N(Cc2ccc(OC)cc2)C1=O (stereo not drawn)	3%	-0.9	-6	-0.9%
Cc1ccc(C)c(OCC(=O)Nc2ccc3c(c2)OCO3)c1	-10%	0.6	52	0.0%
N#Cc1nc(COc2ccc(F)cc2)oc1N1CCCCC1	-1%	3.6	-2	0.8%
O=C(Cn1cc(C(F)(F)F)ccc1=O)N/N=C/c1cccc(Cl)c1	2%	5.7	36	10%
